Source: PubChem BioAssay (several laboratories)
RN4220 kill = kills Staphylococcus aureus RN4220. S. aureus RN4220 growth, OD600, 16 h. AID 1259311. inhibition, % (test concentration not listed). 330,000 tested, 0.33% active;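 active = z-score of -3 or lower and OD600 up to 0.18 on both plates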;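 note: plate controls were untreated cells for no effect and reference antibiotic for full effect; stock transfer was 100 nL into about 80 µL; one replicate is shown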
Bead autofluor = counter-screen for toxin protease inhibitors: compound fluorescence; 360,000 tested, 3.1% active; fluorescence intensity (concentration not given with the values); compound autofluorescence counterscreen, microsphere flow cytometry; hits give high values; AID 624483;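 active = at least 3 SD above the mean of all compounds, about 16000 in these data; inconclusive = too few beads counted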;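 note: 100 nL of 1 mM stock went into each well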
PrP UTR inh = inhibition of PrP 5' UTR reporter expression; 340,000 tested, 0.35% active; inhibition, % (concentration not given with the values); cell-based PrP 5' UTR mRNA reporter, plate reader; AID 488862;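 active = every replicate at 50% or more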;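 note: 0 = median of the neutral control wells; tested in H4 reporter cells; numbers are from one replicate; inactives centre near -14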
ugtP null kill = kills S. aureus RN4220 lacking UgtP; S. aureus RN4220 ugtP deletion, OD600 growth, 16 h; some inactives read as strong as hits; growth inhibition, % (test concentration not listed); 330,000 tested, 0.54% active; AID 1259309;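 active = z-score under -3 and OD600 up to 0.15 on both plates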;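 note: plate controls were untreated wells for no effect and antibiotic for full effect; wells of about 80 µL received 100 nL stock; the first replicate is given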
BJeLR lethal = kills HRASV12-expressing BJeLR cells; BJeLR (HRASV12) viability, CellTiter-Glo ATP luminescence, 48 h; reference of the scale not given here; inhibition, % (test concentration not listed); 300,000 tested, 0.17% active;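 active = replicate mean above 50%; inconclusive = above 50% but judged a plate artefact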;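 note: 50 nL library stock added to about 25 µL; numbers are from one replicate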
Mtb hypoxia inh = reduces hypoxia-regulated biosensor signal in M. tuberculosis; M. tuberculosis hypoxia-regulated fluorescent reporter, fluorescence; fluorescence inhibition, % (test concentration not listed); 300,000 tested, 0.1% active; AID 1159583;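 active = 35 to 45% if threefold the growth effect, above 45% if 1.5-fold the growth effect; inactive = the rest, general growth blockers included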;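 note: wells of about 50 µL received 100 nL stock; 0% = vehicle wells and 100% = reference inhibitor wells; whole bacteria with a GFP reporter of the hypoxia response; strong numbers were not always called active; many hits fall short of the cut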
Mtb hypoxia inh growth = second read-out of Mtb hypoxia inh, no call of its own (marks repeat the call); growth inhibition, %; measured here: M. tuberculosis growth (absorbance);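 0% = vehicle and 100% = reference antibiotic; read after six days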
Numbers without * were called inactive; ? = inconclusive; / = not tested or not shown; & = joins results of further samples.

SMILES	RN4220 kill	Bead autofluor	PrP UTR inh	ugtP null kill	BJeLR lethal	Mtb hypoxia inh	Mtb hypoxia inh growth
Cc1ccc(S(=O)(=O)N2CCOCC2)cc1NC(=O)CN1CCC(Cc2ccccc2)CC1	/	2565	-14	/	7	/	/
CSC(=S)NN=Cc1c[nH]c2ccccc12	21	/	/	12	/	3	-1
O=C(CN1CCN(S(=O)(=O)c2ccc3c(c2)OCCO3)CC1)Nc1cccc(F)c1	4.1	/	-4	4	/	4	14
CCCN(CCC)C1CC(=O)N(Cc2ccccc2)C1=O (stereo not given)	0.4	2510	-15	-5	15	6	7
CCCC(=O)Nc1nc2ccc(NC(=O)c3cccnc3)cc2s1	0.8	8169	-39	25	3	16	13
O=C1N=c2ccccc2=C/C1=C\c1c(O)[nH]c(=S)[nH]c1=O	2.1	2674	-16	-3	14	5	3
CSc1cc(SC)ncn1	4.3	3971	-8	5	/	5	4
Cc1ccc2cccc(OCc3nnc(SCC(=O)O)n3C)c2n1	5.0	3076	-10	6	-1	12	8
O=C(NCc1cccnc1)[C@@H]1CC=C[C@@H]2CCN(Cc3ccc(Cl)c(Cl)c3)C(=O)[C@@H]21	/	4012	-13	/	-13	/	/
NNC(=O)/C(=C\c1ccc(Br)cc1)NC(=O)c1cccs1	2.9	4400	-6	0	-11	17	0
COc1ccc(N(C(=O)c2ccco2)C(C(=O)NC2CCCCC2)c2ccccc2)cc1 (stereo not given)	1.7	4706	6	-6	2	/	/
O=C(NCCSCc1ccccc1)c1ccccc1	2.3	2285	-19	3	5	6	3
CC(=O)Nc1ccc(S(=O)(=O)Nc2ccc(Cl)cn2)cc1	10	3237	-12	6	-3	14	10
Cc1ccc(-c2cc(C(F)(F)F)n3ncc(C(=O)O)c3n2)cc1	0.7	2624	-8	9	6	/	/
CNS(=O)(=O)c1cccc(C(=O)OCC(=O)Nc2ccc(Cl)cn2)c1	4.2	5204	-24	2	-1	2	2
O=C(NN=Cc1cccnc1)c1ccc(CN2c3cccc4cccc(c34)S2(=O)=O)cc1	-9.1	/	/	-2	/	-4	15
CCN(Cc1ccncc1)C(=S)Nc1ccccc1	4.6	2215	-32	5	-7	-1	11
Cc1c(C(=O)OC(C)C)[nH]c2c1C(=O)CCC2	1.0	9458	-3	-3	15	-7	-8
COc1c(C)cc(C(=O)C2CCCN(C3CCOCC3)C2)cc1C (stereo not given)	4.6	4637	5	1	-6	7	2
CCNC(=O)c1cccc(NC(=O)CC2SC(N3CCCCC3)=NC2=O)c1 (stereo not given)	1.6	4153	-16	6	0	8	-2
CCc1cccc(CC)c1NC(=O)c1cc(CN2C(=O)c3ccccc3C2=O)ccc1OC	17	2478	-11	6	-1	12	3
Cc1ccc2cccc(OC(=O)/C=C\c3ccccc3)c2n1	1.4	4487	-13	0	-5	12	5
C=CCn1c(O)c(C(CC)=NCCCO)c(=O)[nH]c1=O	2.7	3273	-2	11	-11	-2	0
CCOC(=O)C1=C(C)N=c2s/c(=C\c3ccc(C(=O)O)cc3)c(=O)n2C1c1ccc(F)cc1 (stereo not given)	/	3273	-1	/	-3	/	/
CCCCSCc1cc(C(=O)O)oc1C(C)(C)C	2.0	4276	-12	8	3	4	8
CCOc1cc(/C=C/C(=O)Nc2ccc(C(=O)NCCN(CC)CC)cc2)ccc1OCC(C)C	-3.6	5769	-7	-17	5	9	12
Cc1cc(C)c(S(=O)(=O)Nc2ccc(O)c(Sc3ncn[nH]3)c2)cc1C	2.3	6200	3	-8	3	/	/
CCOC(=O)CON1C(=O)C(=O)N(OCC(=O)OCC)C2CCCCC21 (stereo not given)	6.0	4235	25	5	-4	12	5
COc1ccccc1OCCC(=O)OCC(=O)c1[nH]c(C)c(C(C)=O)c1C	0.9	3620	1	-1	6	7	-5
Cc1nc2sc(C(=O)c3ccccc3)c(N)c2c(C)c1C	0.0	4155	-47	0	-3	6	5
Cc1ccc(/C=C/C(=O)OCC(=O)NC(C)c2ccccc2)o1 (stereo not given)	1.2	3482	-13	-3	/	0	9
CC(C)CN(CC(C)C)S(=O)(=O)N1CCC(C(=O)NCc2ccc(F)cc2)CC1	-3.4	10430	-24	2	-4	2	0
CCOC(=O)c1cnc(SCC(=O)c2ccc(C)cc2)nc1N	3.5	2564	-1	15	4	11	1
Cc1cc(C)c2nc(NNC(=O)c3ccc(S(=O)(=O)N4CCCC(C)C4)cc3)sc2c1 (stereo not given)	22	4443	7	-8	6	-2	13
CCCCCC(=O)N1CC2(CC(c3cccc(NC(=O)C4CCC(=O)N4)c3)=NO2)CC1C(N)=O (stereo not given)	3.4	/	/	3	/	6	4
CCOc1ccccc1NC(=O)CN(C)S(=O)(=O)c1cnc[nH]1	9.6	4103	-31	19	-1	1	5
Cc1ccccc1NC(=O)C1CCCN1S(=O)(=O)c1ccccc1C(F)(F)F (stereo not given)	-0.6	3408	-28	0	/	4	-3
COc1ccc(CCn2c(N3CCOCC3)nc3c2c(=O)[nH]c(=O)n3C)cc1	0.7	7746	-2	2	-1	2	-4
Cc1ccccc1NS(=O)(=O)c1ccc(C)c(C(N)=O)c1	5.1	5659	-30	-7	-6	16	5
CCN(CC)CCNC(=O)COc1ccc(OC)cc1	7.8&0.4	5951&6002	-22&-25	4&3	5	8&2	0&-9
CC(C)Oc1ccc(CNC(=S)Nc2ccccc2)cc1Cl	4.8	/	-28	-7	2	4	-1
O=C(N=C1N=C2C=CC=CN2Cc2ccccc21)c1ccc(S(=O)(=O)N2CCOCC2)cc1	-1.4	3223	39	14	5	8	9
COC(=O)CCC(=O)Oc1ccc(OC(=O)CCC(=O)OC)cc1	-2.3	/	/	-1	2	1	4
O=C(Nc1cccc(C(F)(F)F)c1)C(Sc1cccc[n+]1[O-])c1ccccc1 (stereo not given)	-3.1	2098	-33	-2	-19	-1	4
CCOC(=O)C1CCN(CC(O)COCc2ccccc2)CC1 (stereo not given)	3.4	3457	/	15	-6	-6	-4
CC/C(C)=N/Nc1cccc([N+](=O)[O-])c1	/	1931	-7	/	-14	/	/
O=C(NC1CCN(Cc2ccccc2)CC1)C1CCN(c2nnc(-n3cccc3)s2)CC1	-2.6	6127	-5	7	7	/	/
O=C1CN(C(=O)COc2ccccc2)CCN1	2.7	4393	-9	-8	6	7	0
O=C(NN=Cc1cc2c(cc1Cl)OCO2)c1ccc2c(c1)OCCO2	19	/	/	3	/	-5	7
CC(=NNC(=O)c1cc(-c2ccco2)nc2ccccc12)c1cccnc1	4.2	/	/	17	/	0	-1
(listing goes on)
SMILES	RN4220 kill	Bead autofluor	PrP UTR inh	ugtP null kill	BJeLR lethal	Mtb hypoxia inh	Mtb hypoxia inh growth
CCC(C)C(C(=O)N1CCNCC1)n1cc(CCC(=O)O)nn1 (stereo not given)	-3.9	/	/	-8	/	-5	4
O=C(COC(=O)Cc1ccc(Cl)cc1Cl)NCCC1=CCCCC1	0.3	1974	9	-6	-2	-8	5
Cc1cc(C(=O)COC(=O)/C=C/c2ccco2)c(C)n1C	3.7	4195	-24	-6	/	2	0
COc1cc(NC(=O)C2CCCO2)c(C(=O)O)cc1OC (stereo not given)	3.0	21130*	1	-3	8	5	7
O=C(Cc1c(F)cccc1Cl)Nc1ccc(-n2cnnn2)cc1	4.3	4607	-1	19	/	10	3
COc1ccc(N(CC(=O)NC2CCCCC2)S(=O)(=O)c2cccs2)cc1	3.5	4000	-16	7	/	8	-1
C=CCN(CC=C)C(=O)CCc1nnc(CCc2c[nH]c3ccccc23)o1	1.5	4795	-28	0	1	13	6
CCOc1ccccc1CNCCO	6.6	?	-8	10	2	0	5
COc1ccc(NC(=O)COC(=O)Cc2cccs2)cc1OC	2.6	4984	-24	13	11	7	4
O=C(CSc1nnc(COc2ccc(Cl)cc2)o1)Nc1ccc(N2CCOCC2)cc1	2.6	4665	-20	1	/	13	3

Reformatted with two lines to a compound: part of the list above.
Every second line gives: RN4220 kill, Bead autofluor, PrP UTR inh, ugtP null kill, BJeLR lethal, Mtb hypoxia inh, Mtb hypoxia inh growth
CCCC(=O)Nc1nc2ccc(NC(=O)c3cccnc3)cc2s1
    0.8, 8169, -39, 25, 3, 16, 13
O=C1N=c2ccccc2=C/C1=C\c1c(O)[nH]c(=S)[nH]c1=O
    2.1, 2674, -16, -3, 14, 5, 3
CSc1cc(SC)ncn1
    4.3, 3971, -8, 5, /, 5, 4
Cc1ccc2cccc(OCc3nnc(SCC(=O)O)n3C)c2n1
    5.0, 3076, -10, 6, -1, 12, 8
O=C(NCc1cccnc1)[C@@H]1CC=C[C@@H]2CCN(Cc3ccc(Cl)c(Cl)c3)C(=O)[C@@H]21
    /, 4012, -13, /, -13, /, /
NNC(=O)/C(=C\c1ccc(Br)cc1)NC(=O)c1cccs1
    2.9, 4400, -6, 0, -11, 17, 0
COc1ccc(N(C(=O)c2ccco2)C(C(=O)NC2CCCCC2)c2ccccc2)cc1 (stereo not given)
    1.7, 4706, 6, -6, 2, /, /
O=C(NCCSCc1ccccc1)c1ccccc1
    2.3, 2285, -19, 3, 5, 6, 3
CC(=O)Nc1ccc(S(=O)(=O)Nc2ccc(Cl)cn2)cc1
    10, 3237, -12, 6, -3, 14, 10
Cc1ccc(-c2cc(C(F)(F)F)n3ncc(C(=O)O)c3n2)cc1
    0.7, 2624, -8, 9, 6, /, /
CNS(=O)(=O)c1cccc(C(=O)OCC(=O)Nc2ccc(Cl)cn2)c1
    4.2, 5204, -24, 2, -1, 2, 2
O=C(NN=Cc1cccnc1)c1ccc(CN2c3cccc4cccc(c34)S2(=O)=O)cc1
    -9.1, /, /, -2, /, -4, 15
CCN(Cc1ccncc1)C(=S)Nc1ccccc1
    4.6, 2215, -32, 5, -7, -1, 11
Cc1c(C(=O)OC(C)C)[nH]c2c1C(=O)CCC2
    1.0, 9458, -3, -3, 15, -7, -8

Next section.
SMILES	RN4220 kill	Bead autofluor	PrP UTR inh	ugtP null kill	BJeLR lethal	Mtb hypoxia inh	Mtb hypoxia inh growth
O=C(NCc1ccc(F)cc1)C1CCCN(S(=O)(=O)c2cccc3nonc23)C1 (stereo not given)	1.4	4392	12	5	-9	5	-3
COc1ccccc1NC(=O)c1ccc(COc2ccccc2OC)o1	5.7	6992	-19	-2	3	4	6
Cc1cccc(CC2S/C(=N/c3cccc(C)n3)NC2=O)c1 (stereo not given)	4.3	3841	-16	0	-13	10	-6
CC(=O)c1cccc(OCc2cc(C(=O)NC(C)Cc3cccnc3)no2)c1 (stereo not given)	0.9	/	-33	14	2	11	-1
CCOC(=O)C(C(=O)NCC1CCCO1)C1CCCCC1 (stereo not given)	4.8	2623	0	-1	-2	/	/
COC(=O)c1cc2sccc2n1CC(=O)N(C)c1ccccc1	2.5	2517	-26	7	-9	7	8
O=C(NCCCN1CCCC1=O)c1cn(-c2ccccc2)nc1-c1ccccc1	/	4123	-13	/	2	/	/
COCCOC1CCN(C(=O)C2CCC(=O)N(CCc3cccc(F)c3)C2)CC1 (stereo not given)	1.8	4910	-32	6	2	-1	2
COc1cccc(C2C(C#N)=C(N)N(N(C)C)C3=C2C(=O)CCC3)c1OC (stereo not given)	2.0	4334	-33	7	-18	8	-3
CC(c1cccnc1)N(CCN(C)C)C(=O)Nc1ccc(Cl)c(Cl)c1 (stereo not given)	-0.9	4573	-7	11	-12	8	4
O=[N+]([O-])c1cccc(S(=O)(=O)NCC2CCCO2)c1 (stereo not given)	2.9	1977	5	1	-10	-5	6
COc1ccc(N2CCN(C(=O)c3cc(S(=O)(=O)N4CCCCCC4)ccc3OC)CC2)cc1	2.4	?	-6	3	/	-21	-4
CCN1CCN(Cc2ccc(NC(=O)Nc3ccccc3)cc2)CC1	2.3	6065	-17	7	-1	/	/
CC(=O)c1cccc(NC(=O)N2CCCC2C(=O)NCCc2ccccc2)c1 (stereo not given)	3.2	4588	-6	-2	3	/	/
N#CC(=C=[N-])c1nc2ccccc2nc1-[n+]1cccc(NC(=O)c2ccc(F)cc2)c1	0.9	/	/	3	-6	1	-6
